# Source: PubChem BioAssay
# Yeast UUG start – alters start codon recognition fidelity in yeast | S. cerevisiae UUG-firefly luciferase reporter, luminescence/redox ratio | activity score, % at 18.7 µM | 350,000 tested, 0.13% active | AID 602363;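 active means replicate mean at a twofold rise or more, about +100% in these data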;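 further: firefly luciferase made from a UUG start codon reports start codon fidelity; reporter light over untreated wells divided by growth signal over untreated wells; some hits fall short of that in this replicate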
# eIF4H FP inh – inhibitors of RNA binding by human eIF4H. eIF4H fluorescence polarization binding assay. inhibition, % at 35 µM. 290,000 tested, 0.94% active. AID 2012;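 active means 50% or more with normal probe brightness, or confirmed in later tests; about a fifth of its hits are not listed in these tables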;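 further: calls also rest on retests at 20 µM and on dose response follow-up; 0% = protein and probe with vehicle and 100% = probe without protein; strong numbers were not always called active; many hits fall short of the cut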
# PABP FP inh – blocks human PABP binding to poly(A) RNA. P11940. fluorescence polarization. inhibition, % at 35 µM. 290,000 tested, 1% active;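 active means 50% or more with normal probe brightness, or confirmed in later tests; about a fifth of its hits are not listed in these tables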;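 further: calls also rest on retests at 20 µM and on dose response follow-up; controls were probe without protein and protein plus probe with vehicle; some compounds called inactive have numbers as strong as hits; many hits fall short of the cut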
# Target sequence (P11940 whole entry, looked up): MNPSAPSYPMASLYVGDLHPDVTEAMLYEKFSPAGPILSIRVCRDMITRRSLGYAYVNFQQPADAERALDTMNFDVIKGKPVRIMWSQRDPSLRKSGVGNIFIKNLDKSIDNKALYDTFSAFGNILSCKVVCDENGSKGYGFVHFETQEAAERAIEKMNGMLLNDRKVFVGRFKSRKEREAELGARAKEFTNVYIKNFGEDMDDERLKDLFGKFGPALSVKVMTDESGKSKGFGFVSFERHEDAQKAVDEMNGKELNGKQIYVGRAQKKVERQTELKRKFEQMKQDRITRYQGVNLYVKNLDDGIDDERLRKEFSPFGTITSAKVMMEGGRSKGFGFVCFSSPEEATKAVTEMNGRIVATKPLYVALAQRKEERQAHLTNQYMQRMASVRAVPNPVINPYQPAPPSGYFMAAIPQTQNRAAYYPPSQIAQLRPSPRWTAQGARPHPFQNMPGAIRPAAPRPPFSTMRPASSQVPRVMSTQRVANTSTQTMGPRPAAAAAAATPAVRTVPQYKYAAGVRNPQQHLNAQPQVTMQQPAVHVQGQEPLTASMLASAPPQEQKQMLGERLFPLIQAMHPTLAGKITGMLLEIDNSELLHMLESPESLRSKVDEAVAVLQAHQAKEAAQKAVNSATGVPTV
# Rce1 inh – yeast Ras-converting enzyme inhibition. Q03530. yeast membranes, quenched prenylated peptide cleavage fluorescence. calls only. 290,000 tested, 0.27% active;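 active means fall in fluorescence gain of 50% or more versus controls, with final raw signal at or below 3038400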;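 further: plate controls were neutral control wells for no effect and wells lacking membranes for full effect; tested at 10 µM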
# Target sequence (Q03530 whole entry, looked up): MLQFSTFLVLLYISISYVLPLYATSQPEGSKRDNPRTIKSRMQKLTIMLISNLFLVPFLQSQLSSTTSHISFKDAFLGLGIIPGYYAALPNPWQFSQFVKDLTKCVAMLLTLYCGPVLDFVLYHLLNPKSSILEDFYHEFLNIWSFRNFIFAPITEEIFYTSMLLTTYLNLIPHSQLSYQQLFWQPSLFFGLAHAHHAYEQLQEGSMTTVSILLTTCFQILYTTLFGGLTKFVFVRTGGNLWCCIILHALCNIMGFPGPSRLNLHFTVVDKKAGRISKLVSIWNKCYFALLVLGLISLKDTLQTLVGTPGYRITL
# Env fusion inh – blocks HIV Env-driven cell-cell fusion | 360,000 tested, 1.1% active | HeLa-JRFL Env/CEM21 cell fusion, luciferase | inhibition, % at 12.3 µM;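 active means mean replicate inhibition score of at least 50 and every replicate individually at or above 50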;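 further: 0% = plate neutral controls and 100% = maraviroc near 300 nM; one replicate is shown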
# MT1-MMP act inh – MT1-MMP (human) activation inhibition; HT1080 RFP-PRO-GFP cells, GFP/RFP ratio fluorescence, overnight; percent of plate control window, DMSO zero; GFP/RFP ratio change, % at 20 µM; P50281; 360,000 tested, 0.061% active;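 active means GFP/RFP ratio change of at least 30% with cell ATP level not reduced by more than half and red fluorescence within 50% of control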; further: strong numbers were not always called active
#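 Compound: 20 µM single dose, 1% DMSO / System: HT1080 RFP-PRO-GFP cells / Controls: DMSO and RFP-L50D-GFP cell wells / Read-out basis: GFP/RFP fluorescence ratio / Schedule: overnight compound exposure at 37 °C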
# CSC inhib – cancer stem cell inhibition. cancer stem cell-like cells viability, luminescence. inhibition, % at 7.5 µM. 300,000 tested, 1.1% active. AID 2717;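 active means mean at 75% or more and at least half the replicates too; tested in HMLE shEcad cells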;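 further: 0% = median of negative and 100% = median of positive control wells; the first replicate is given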
# eIF4H FP inh retest – recorded beside eIF4H FP inh, whose call it bears; inhibition, %; compound at 20 µM; confirmation average;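 mean of two retest wells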
# PABP FP inh retest – further read-out of PABP FP inh, marked with its call; inhibition, %; compound at 20 µM; confirmation repeats;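 mean of two retest wells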
# MT1-MMP act inh RFP – second read-out of MT1-MMP act inh, no call of its own (marks repeat the call); RFP signal change, %; measured here: RFP expression control read;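 0 = vehicle wells; hits needed this value within 50% of zero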
# Active calls of the source: *; i = inactive; x = no result given; & = joins results of further samples; [ ] = another dose, or the depositor's remark. Compounds as they come; overall some 2.9% were active at least once.
SMILES,Yeast UUG start,eIF4H FP inh,PABP FP inh,Rce1 inh,Env fusion inh,MT1-MMP act inh,MT1-MMP act inh RFP,CSC inhib,others
Clc1ccc(OCc2nnc(-c3ccccc3Br)o2)cc1,-36,1,-3,i,-4,-3,-5,-5,
O=C(CCC(=O)Nc1ccc(F)cc1)N/N=C/c1ccc(Br)cc1,-6,0,2,i,13,0,-1,-1,
C[C@H](CO)N1C[C@H](C)[C@@H](CN(C)Cc2ccc(-c3ccccc3)cc2)Oc2c(NS(=O)(=O)c3ccc(F)cc3)cccc2C1=O,-19,x,x,x,-87,14,0,x,
Cc1ccc2cccc(Oc3nnnn3-c3ccccc3)c2n1,x,0,-3,i,-66,-3,-2,-15,
O=C(Nc1nccc(-c2cccs2)n1)c1cccs1,x,-2,12,i,x,4,10,-7,
Cc1sc2nc(C)n(/N=C/c3ccc(O)cc3O)c(=O)c2c1C,x,6,-7,i,-12,2,3,1,
CC1CC(=O)c2ccccc2C1C (stereo not given),-18,x,x,x,-28,0,3,x,
O=C(CCN1C(=O)COc2ccccc21)NCCCN1CCN(c2ccccc2F)CC1,2,-16,-6,i,x,3,-2,-5,
Cc1c(NS(C)(=O)=O)cccc1-c1nc2cccnc2s1,-10,10,-6,i,-10,-7,-10,-10,
CCC1=NN2C(=N)/C(=C/c3ccc(OS(=O)(=O)c4ccccc4)c(OC)c3)C(=O)N=C2S1,-23,-22,13,x,-3,1,7,-5,
O=P(OC1CCS(=O)(=O)C1)(c1ccccc1)c1ccccc1 (stereo not given),0,7,-3,i,-1,-1,5,x,
COc1ccc(NC(=O)c2ccc(-c3nn(C)c(=O)c4ccccc34)cc2)cc1,-16,-1,5,i,-3,1,0,2,
COc1ccc(C(C)=O)cc1COC(=O)CNC(=O)c1ccccc1F,x,1,1,i,20,-8,2,-7,
CCn1c(SCC(=O)c2ccc(Cl)cc2)nnc1-c1cccs1,-7,-8,-5,i,-11,0,3,16,
CCCNC(=O)Nc1cccc(C(=O)OC)c1,x,2,-5,i,1,4,1,7,
O=C(Nc1ncc(Br)s1)C(Cc1ccccc1)n1cccc1 (stereo not given),-17,0,-3,i,17,-7,-12,31,
COc1ccc(NC(=O)CN(C)C(=O)c2cccc(-n3cccc3)c2)cc1,20,x,x,i,-6,2,-3,-15,
Cc1ccc(C2=Nc3ccccc3N(C(=O)c3ccccc3)C(C)C2)cc1 (stereo not given),x,8,1,i,-4,-3,0,8,
CC(=O)Nc1ccc(OCC(O)CNC(C)C)cc1 (stereo not given),-12,x,x,x,x,-1,2,-8,
CCOC(=O)N1CCN(C(=O)c2ccc(C#CC3(O)CCCCC3)cc2)CC1,6,-1,2,i,x,3,-2,-1,
O=C(Nc1ccccc1)Nc1nnc(-c2cccs2)s1,-6,-9,0,i,-25,4,1,15,
COc1cc(NC(=O)c2cccs2)c(OC)cc1NC(=O)c1ccco1,-23,-4,9,i,-52,6,6,-14,
COC(=O)c1ccccc1NC(=O)c1cn(-c2ccc(C)c(C)c2)c(=O)c2ccccc12,-12,-8,-6,i,6,-7,-6,23,
COc1ccc(C=O)cc1COc1ccc2c(c1)OCO2,1,x,x,x,20,1,-1,x,
O=C(COC(=O)c1ccc(CNS(=O)(=O)c2ccc(F)c(Cl)c2)cc1)NC1CCCCCCC1,x,2,6,i,x,0,7,-4,

# Arranged by count of non-hydrogen atoms (falling): 6 of the compounds above
SMILES,Yeast UUG start,eIF4H FP inh,PABP FP inh,Rce1 inh,Env fusion inh,MT1-MMP act inh,MT1-MMP act inh RFP,CSC inhib,others
COc1ccc(NC(=O)c2ccc(-c3nn(C)c(=O)c4ccccc34)cc2)cc1,-16,-1,5,i,-3,1,0,2,
COc1ccc(NC(=O)CN(C)C(=O)c2cccc(-n3cccc3)c2)cc1,20,x,x,i,-6,2,-3,-15,
COc1ccc(C(C)=O)cc1COC(=O)CNC(=O)c1ccccc1F,x,1,1,i,20,-8,2,-7,
O=C(CCC(=O)Nc1ccc(F)cc1)N/N=C/c1ccc(Br)cc1,-6,0,2,i,13,0,-1,-1,
O=P(OC1CCS(=O)(=O)C1)(c1ccccc1)c1ccccc1 (stereo not given),0,7,-3,i,-1,-1,5,x,
CCCNC(=O)Nc1cccc(C(=O)OC)c1,x,2,-5,i,1,4,1,7,

# Going on with the list:
SMILES,Yeast UUG start,eIF4H FP inh,PABP FP inh,Rce1 inh,Env fusion inh,MT1-MMP act inh,MT1-MMP act inh RFP,CSC inhib,others
CCCCSc1nc(O)c(Cc2ccccc2)c(=O)[nH]1,-19,-12,-6,i,-19,2,5,x,
Cc1cc(NC(=O)CSc2ccc3nnc(-c4cccnc4)n3n2)no1,-12,-3,4,i,-31,0,-3,-7,
Cc1cccc(C(C)C)c1NC(=O)CN(C)Cc1cccc(F)c1,x,-4,2,i,-11,1,-1,5,
CC(OC(=O)CCC(=O)c1ccccc1)C(=O)Nc1ccc(F)cc1 (stereo not given),x,x,x,i,-6,1,4,-2,
CC(=O)Nc1ccccc1C(=O)C(=O)Nc1cccc(C(=O)NC2CC2)c1,-23,2,8,i,-12,2,2,-6,
CCOc1ccccc1N1CCN(C(=O)c2cccs2)CC1,2,-3,-1,i,-7,0,1,-3,
CCOC(=O)c1[nH]c(C(=O)O)c(CCC(=O)OC)c1C,-2,3,-1,i,x,-5,-9,2,
Cc1cc(C)c2c(n1)sc1c(=O)n(CC(=O)c3ccccc3)cnc12,x,1,5,i,-36,1,-3,34,
CC(=O)NC(C(=O)OCC(=O)N(c1ccccc1)c1ccccc1)C(C)C (stereo not given),8,2,-13,i,-7,0,1,-20,
O=S(=O)(c1ccc(F)cc1)c1nc(-c2ccccc2)oc1N1CCOCC1,-2,0,-6,i,-10,0,-1,0,
Nc1ccc(C(=O)O)cc1S(=O)(=O)O,6,0,8,i,-2,5,-1,-11,
Cc1cc(C(=O)Nc2cccc3c2O[C@@H](CN(C)S(C)(=O)=O)[C@H](C)CN([C@@H](C)CO)C3=O)n(C)n1,-12&-12,x,x,x,-24[16.7 µM],1,1,x,
COc1ccccc1NC(=O)Nc1ccc(S(=O)(=O)Nc2onc(C)c2C)cc1,-6,x,x,x,-1,-2,2,-15,
CCCc1nnc(NC(=O)c2cccs2)s1,12,3,1,i,-57,2,2,5,
O=C(COC(=O)c1cnccn1)NC(=O)c1ccccc1,-14,x,x,i,-13,4,4,5,
Cc1cccc(NC(=O)CNC(=O)N2CC(=O)Nc3ccccc32)c1C,x,-14,0,i,-1,-1,0,-8,
Oc1c(CN2CCOCC2)cc(COCc2ccccc2)c2cccnc12,-40,17,12,i,22,6,-3,48,
COc1ccc(/C=C/C(=O)O)cc1S(=O)(=O)NCc1cccnc1,-11,35,19,i,-4,-5,4,-15,
CCOC(=O)/C(=N\Nc1ccccc1Cl)N(C)C1CCS(=O)(=O)C1 (stereo not given),x,-1,-15,i,19,-2,0,-11,
CCOc1cc(-c2cc(-c3ccc(N)cc3)nc(N)c2C#N)ccc1O,-12,4,-1,i,x,3,-11,37,
COc1ccccc1C(=O)Nc1nc2cc3c(cc2s1)OCO3,-16,18,10,i,-45,0,-2,21,
COC(=O)C1=C(C)N(CCCC(=O)O)C(=O)NC1c1ccc([N+](=O)[O-])cc1 (stereo not given),-3,x,x,i,0,2,2,-9,
COc1ccc(CCNC(=O)CNC(=O)Cn2cnc3sc(C)c(C)c3c2=O)cc1OC,83,0,-7,i,-23,2,8,1,
COc1ccccc1/C=C1\SC(=S)N(NS(=O)(=O)c2ccc(C)cc2)C1=O,-10,-5,4,i,-11,4,2,18,
CCN(CC)Cc1c(C(=O)N/N=C(\C)c2ccncc2)nnn1-c1nonc1N,x,-8,-8,i,-10,2,1,-5,

# (list continues)
SMILES,Yeast UUG start,eIF4H FP inh,PABP FP inh,Rce1 inh,Env fusion inh,MT1-MMP act inh,MT1-MMP act inh RFP,CSC inhib,others
Cc1onc(-c2ccccc2Cl)c1C(=O)NCC1CCCO1 (stereo not given),-14,-4,1,i,x,0,-3,-7,
O=C(NNc1cc(N2CCOCC2)nc(N2CCOCC2)n1)c1ccc(Cl)c(Cl)c1,x,0,-10,i,-42,1,-1,-4,
COc1ccc(NC(=O)CCN2C(=O)C3CC=CCC3C2=O)cc1S(=O)(=O)N1CCCCC1 (stereo not given),-13,x,x,x,10,7,2,x,
CC(C)Oc1ccccc1C1CC(=O)Nc2cc3c(cc21)OCCO3 (stereo not given),-14,-8,-4,i,-32,13,-9,-31,
Cc1nnc(SCC(=O)Nc2cc(S(C)(=O)=O)ccc2Cl)n1Cc1ccccc1,-2,1,-9,i,20,0,-2,x,
COc1ccc(-c2csc(NC(=O)Nc3ccccc3)n2)cc1,-4,-1,-3,i,14,1,-7,6,
CCCCn1c(N)c(N(CC(C)C)C(=O)C2CCN(C(=O)c3ccc(Cl)cc3)CC2)c(=O)[nH]c1=O,-12,x,x,i,12,-5,1,-7,
Cc1cccc(OCCCC(=O)Nc2ccc3c(c2)OCO3)c1,x,5,5,i,x,7,5,15,
C/C(=N\NC(=S)Nc1ccc(C)cc1)c1cc2ccccc2o1,-14,24,1,i,7,2,5,31,
COC(=O)c1[nH]c2ccccc2c1NC(=O)CN1CC(C)OC(C)C1 (stereo not given),4,0,8,i,x,-1,-2,7,
O=C(/C=C/c1ccccc1Cl)Nc1cccc(S(=O)(=O)NC2=NCCCCC2)c1,x,25,8,i,-56,2,-10,x,
CC(=O)NC(CCS(C)(=O)=O)C(=O)Nc1cccc(C(C)=O)c1 (stereo not given),-6,-8,10,i,x,6,5,-10,
CC(C)C[C@@H](CNCC(=O)[C@H](CC(C)C)NC(=O)c1[nH]cnc1C(=O)N[C@@H](C)CN)NC(=O)c1nc[nH]c1C(=O)N[C@@H](C)C(=O)O,135*,x,x,x,-9,1,3,x,
COc1ccccc1C(CNC(=O)CNC(=O)c1ccc(Cl)c(Cl)c1)N1CCCC1 (stereo not given),-7,x,x,x,13,-1,0,-10,
Cc1cccc(CN2CCN(CC(=O)NCc3cccs3)C2=O)c1,x,6,2,x,11,5,12,12,
CCc1nnc(NC(=O)c2nc3nc(C)cc(C)n3n2)s1,-17,-8,-8,i,x,4,-1,8,
COC(=O)c1c(-c2ccccc2Cl)noc1/C=C/N(C)C,-9,-2,5,i,7,-94,-1,-4,
CCOc1ccc(N(CC(=O)NCc2ccco2)S(C)(=O)=O)cc1,9,10,11,i,x,0,1,x,
O=C(CCc1ccccc1)NNC(=S)NCc1ccc(Cl)cc1,-20,2,2,i,3,-5,0,-5,
COc1ccc(C)cc1NC(=O)c1cc2c(CO)cnc(C)c2oc1=N,0,9,-6,i,-18,3,8,0,
CN1C(N)=NC(=O)/C1=C/c1ccccc1F,x,4,-17,i,-11,2,6,-2,
COC(=O)c1ccc(-c2ccc(Cl)cc2)nc1C,-3,6,9,i,-156,-2,-2,x,
CCCCn1c(SCC(=O)N2CCCC2)nc2c1c(=O)n(C)c(=O)n2C,-8,8,-3,i,-13,8,0,-14,
CCn1c(COc2ccc(C)cc2)nnc1SCC(=O)Nc1ccc(S(N)(=O)=O)cc1,0,-1,2,i,x,1,-4,10,
CCN(CC)CCOC(=O)c1ccc(N/C=C(/C#N)c2nc(-c3cc4ccccc4oc3=O)cs2)cc1,-8,-34,-50,i,-2,0,2,-7,
CCCCC(CC)C(=O)Nc1ccc(C#N)cc1 (stereo not given),0,-2,-6,i,-36,1,1,-20,
COc1ccc(NC(=O)CN(C)C(=O)CSCC(=O)Nc2ccc(C)cc2)cc1,-7,x,x,i,-7,-12,-4,x,
CCCC(=O)Nc1cc(C)c(NC(=O)Cc2ccccc2)cn1,x,14,6,i,-66,x,x,7,
CCOC(=O)c1c(C)oc2c1c(C=NCc1ccccn1)c(O)c1ccccc12,x,121*,116*,x,x,-27,10,x,eIF4H FP inh retest=95*;PABP FP inh retest=88*
COc1ccc2c(c1)c(C(=O)CN1CCc3ccccc3C1)c(C)n2C,5,7,12,i,-8,-4,2,3,
